Source: PubChem (National Center for Advancing Translational Sciences (NCATS))
Anthrax LT inh – blocks cellular internalization of anthrax lethal toxin; Cells, anthrax lethal toxin internalization, FRET ratio (460/530); Potency, µM (highest dose often 40 µM), without a hit: at the top dose activity change, negative = inhibition, usual class: inhibitors; 70,000 tested, 0.67% active; active = well fitted falling ratio curve with the 530 nm signal flat; inconclusive = other ratio curves, or a change in one channel alone; inactive = flat curves in the ratio and both channels; the % refers to the ratio; note: % is set by controls: 0 for no effect and ±100 for the full control effect; nearly all actives have a fitted effect of over 50% in size; tested in ME-180 cells; beta-lactamase reporter
Prx2 Sm inh – inhibitors of Schistosoma mansoni peroxiredoxin 2; S. mansoni Prx2 activity coupled to TGR/GSH (TGR is thioredoxin glutathione reductase), NADPH fluorescence loss, qHTS; some inactives read as strong as hits; Potency, µM; 65,000 tested, 0.07% active; AID 448; active means full or partial inhibition curve with a strong effect at the top dose; inconclusive means weaker partial or single-point curve; inactive means no accepted curve; note: series up to 57 µM; many of its hits are not listed in these tables
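qHTS, coupled TGR/Prx2 format; 15 min compound preincubation at RT; reaction started with H2O2 (2.5 mM aliquot); kinetic NADPH fluorescence decrease, ex 365/em 450 nm.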
Starred values were filed as active, the others as inactive; ? = inconclusive; · = not tested or not shown; & = joins results of further samples; [ ] = remark or other dose. Potency is the fitted concentration of half-maximal effect. Not all compounds are listed; rates above refer to the full screens.

SMILES | Anthrax LT inh | Prx2 Sm inh
CCCNC(=O)C1CCN(c2nc(C)cc(C)n2)CC1 | -4% | >57
CC(=O)Cc1nsc(NC(=O)c2c(-c3ccccc3Cl)noc2C)n1 | -13% | >57
O=C(c1cc(-c2ccccc2)nc2ccccc12)N1CCC2(CC1)OCCO2 | -5% | >57
N#C/C(=C\c1ccc(O)c(O)c1)C(=O)NCCCCc1ccccc1 | ? | >57
COc1cccc(-c2nccc(NCc3ccc(OC)cc3OC)n2)c1 | -19% | >57
CCCCn1nnnc1NCc1cc(OC)c(OC)cc1OC | · | >57
COc1cccc(OCc2nc3ccccc3c(=O)n2N)c1 | · | >57
O=C(NCCC(=O)N1CCNC1=O)OCc1ccccc1 | ? | >57
NC(=O)c1cc(N2CC2)c([N+](=O)[O-])cc1[N+](=O)[O-] | -6% | >57
COc1ccc(-c2cnn(-c3ccccc3)c2N)cc1OC | -5% | ·
COc1cccc(C(c2nnnn2Cc2ccccc2)N2CCN(C(=O)c3ccco3)CC2)c1OC (centres undefined) | ? | >57
Cc1ccnc(NC(=O)CN(C)S(=O)(=O)c2cccc3nsnc23)c1 | 4% | >57
Nc1nonc1-c1noc(CCCCCN2C(=O)c3ccccc3C2=O)n1 | -3% | >57
CCOC(=O)CSc1nnc(CNC(=O)c2cccs2)n1-c1cc(C)ccc1C | -15% | >57
COc1cccc(-c2ccc3ncnc(NCCN4CCOCC4)c3c2)c1 | -8% | >57
COc1ccc(S(=O)(=O)Nc2nncs2)cc1 | 17% | >57
O=C(NCc1ccccc1)C1C2C=CC3(CN(Cc4cccnc4)C(=O)C13)O2 (centres undefined) | 18% | >57
CCOC(=O)N1CCC(NC(=O)c2ccc(NC(=O)C3CCCO3)cc2)CC1 (centres undefined) | 12% | >57
CCc1c(C(=O)Nc2ccncc2)csc1C | ? | >57
COC(=O)c1c(NC(=O)c2cccs2)sc2c1CCC(C)C2 (centres undefined) | ? | >57
CCOc1ccccc1OCCCCCc1c(C)n[nH]c1C | 11% | >57
O=C(CS(=O)(=O)c1ccccc1)Nc1nc(-c2ccccc2)cs1 | -7% | >57
O=S(=O)(c1cccs1)N1CCN(CC(O)COC2CCCc3ccccc32)CC1 (centres undefined) | 0% | >57
Cc1noc(C(=O)N2CC3(C)CC2CC(C)(C)C3)c1Cl (centres undefined) | -7% | >57
COc1ccccc1-c1c(C#N)c(SCC(=O)N2CCCC2)nc(C)c1C(N)=O | -17% | >57
O=C(CCCn1c(=O)c2sccc2n(CC(=O)OCc2ccccc2)c1=O)NCc1ccco1 | -10% | >57
CC(C)=C[C@H]1[C@@H](C(=O)Oc2ccccc2C(C)C)C1(C)C | -26%[8 µM] | >57
CCOC(=O)CC1=C(C(=O)OCC)C(c2ccc(C)o2)C(C#N)=C(N)O1 (centres undefined) | 17% | >57
C=C(C)[C@H]1CN[C@H](C(=O)O)[C@@H]1CC(=O)O | 2% | >57
Cn1c(C(=O)Nc2ccc3c(c2)OCCO3)cc2sccc21 | ? | >57
COc1ccc(OC)c(C(=O)CSc2nnc(Cc3cccs3)n2C)c1 | ? | >57
COc1ccc(NC(=O)c2cnc3sccn3c2=O)cc1OC | -2% | >57
COC(=O)C(C(=O)Nc1ncccn1)C1CCCCCC1 (centres undefined) | ? | >57
CCCCOC(=O)COc1cc(C)cc2oc(=O)c3c(c12)CCC3 | -1% | >57
CCOC(=O)N1CCN(C(=O)C2CCCN(S(=O)(=O)c3cccnc3)C2)CC1 (centres undefined) | 1% | >57
CCOC(=O)N1CCc2c(sc(NC(=O)c3ccc(Cl)s3)c2C(N)=O)C1 | 5µM* | >57
CCCCN(CC)Cc1c(C)[nH]c2ccccc2c1=O | -6% | >57
O=C(c1ccc(N2CCCCS2(=O)=O)cc1)N1CCN(c2ccc(N3CCOCC3)nn2)CC1 | -10% | >57
CO[C@@H]1COC(=O)[C@@H](CCSC)NC(=O)C/C=C\[C@@H](C)COC(=O)CCC[C@H]1C | -7%[1.6 µM] | ·
O=S(=O)(NCC(c1cccnc1)N1CCN(c2ccc(F)cc2)CC1)c1ccccc1 (centres undefined) | -15% | ·
O=C(NCCCN1CCCC1=O)c1cncc(Br)c1 | -2% | >57
O=C(NCCCc1ccccc1)c1ccccc1O | -26% | ·
Cc1c(N(C)C)c(=O)n(-c2ccccc2)n1C | -2% | >57
Cc1cc(NC(=O)CCC(=O)N(c2cccnc2)C(C(=O)NC2CCCC2)c2ccccc2)no1 (centres undefined) | -8% | >57
Cc1nc(C)n(C(=O)N(c2ccccc2)c2ccccc2)n1 | -5% | >57
CC[C@H](C)[C@@H]1O[C@]2(CC[C@@H]1C)C[C@H]1C[C@H](CC=C(C)[C@@H](O[C@H]3C[C@H](OC)[C@H](O[C@H]4C[C@H](OC)[C@H](O)[C@H](C)O4)[C@H](C)O3)[C@@H](C)C=CC=C3CO[C@@H]4[C@@H](O)C(C)=C[C@H](C(=O)O1)[C@@]34O)O2 | ? | ?
CCCOc1ccccc1C1C(C(=O)OC)=CN(C(C)C)C=C1C(=O)OC | ? | >57
COc1ccccc1N1CCN(C(CNC(=O)c2ccco2)c2cccnc2)CC1 (centres undefined) | 1% | >57
N#Cc1cnc(Nc2nc3ccccc3o2)nc1-c1ccccc1 | ? | ·
CCC(=O)Nc1c(-c2ccc(OC)cc2)c(=O)c2ccccc2n1C | 2% | >57

More compounds:
SMILES | Anthrax LT inh | Prx2 Sm inh
COc1ccc(O[C@H]2C=C[C@@H](c3ccccc3)O[C@H]2CO/N=C2/[C@H]3O[C@@H]3[C@@H](O)[C@H]3[C@H]2CCn2c(=O)n(-c4ccccc4)c(=O)n23)cc1 | 1%[1.6 µM] | ·
Cc1cc(C)n(-c2nc3c(c(=O)[nH]c(=O)n3C)n2CC(O)COc2ccccc2)n1 (centres undefined) | ? | >57
COc1ccc(N2C(=O)C3CCCN3C2c2cc(OC)c(OC)cc2OC)cc1 (centres undefined) | 12% | >57
CC(C)c1nnc(NC(=O)CCC(=O)N2CCN(Cc3ccccc3)CC2)s1 | 0% | >57
CCc1ccc2[nH]c(=O)c(C(c3nnnn3CC3CCCO3)N3CCN4CCCC4C3)cc2c1 (centres undefined) | -9% | >57
O=CNCCCc1nc2ccccc2n1Cc1ccccc1 | · | >57
O=C(NCCN1CCCC1)C1CCN(S(=O)(=O)N2CCC3(CC2)OCCO3)CC1 | 2% | >57
O=C(CN1CCCC1)N1CCCc2c1c(=O)oc1ccc(OCc3ccccc3)cc21 | 3% | >57
CC(C)NC(=O)CSc1nc2ccccc2n1-c1ccccc1 | -4% | >57
O=C(CSc1nnc(-c2ccco2)n1Cc1ccccc1)OC1CCCCC1 | -1% | >57
CCn1c(=O)n(CC)c2cc(S(=O)(=O)N3CCc4ccccc43)ccc21 | ? | >57
CC(C)CCOC(=O)C1C2C=CC3(CN(Cc4cccs4)C(=O)C13)O2 (centres undefined) | -9% | >57
O=P(O)(O)c1ccccc1OCc1ccccc1 | -3% | >57
Cc1ccc(-c2nnc(CSc3nnc4c5c(C)c(C)sc5nc(C(C)C)n34)o2)cc1 | -5% | >57
CCN1CCCC1CNC(=O)c1c(O)c2c([nH]c1=O)CCCC2 (centres undefined) | ? | >57
C=CC#N | 3% | ·
CCOc1ccc(NS(=O)(=O)c2ccc(NS(C)(=O)=O)cc2)cc1 | -13% | ·
O=C(Nc1nnc(C2CCCCC2)s1)c1cccs1 | 0% | >57
Cc1cccc(-c2nnc(SCC#N)n2-c2ccccc2)c1 | 0% | >57
CCCNC[C@H](O)COc1ccccc1C(=O)CCc1ccccc1 | 1%[3.58 µM] | >57&>57&>57
COc1ccc(/C=C(\C#N)C(N)=O)cc1OC | 1%[8 µM] | >57
CSc1nc(-c2ccccc2)nc(N2CCN(C)CC2)c1C(C)=O | 18% | >57
c1ccc(-n2cccc2CNC2CCCCC2)cc1 | -10% | >57
C/C(CCC(=O)OC[C@@H]1O[C@H](C#Cc2ccccc2)C=C[C@@H]1Oc1ccc(C)cc1)=N/O[C@@H](C)CN1CCCc2nc(C)c(C)cc21 | -7%[1.6 µM] | ·
CN(C(=O)c1ccccn1)c1nnc(-c2ccccn2)s1 | 4% | >57
O=S(=O)(c1ccc(Cl)s1)N1CCN(Cc2ccccc2)CC1 | -29% | >57
O=C(NCC1CCCO1)c1cnn2c1NC(c1ccccc1)CC2C(F)(F)F (centres undefined) | · | >57
COc1ccc(Cn2c(=O)[nH]c3cc(C(=O)NCc4ccc5c(c4)OCO5)ccc3c2=O)cc1 | -6% | >57
CC1(C)NC(=O)N(CC(O)CN(Cc2ccccc2)Cc2ccccc2)C1=O (centres undefined) | -8% | >57
O=S(=O)(c1ccc(F)c(F)c1)N1CCN(Cc2ccc3c(c2)OCO3)CC1 | -2% | >57

Retrieved by compound from the list above (six):
SMILES | Anthrax LT inh | Prx2 Sm inh
CN(C(=O)c1ccccn1)c1nnc(-c2ccccn2)s1 | 4% | >57
COc1ccc(Cn2c(=O)[nH]c3cc(C(=O)NCc4ccc5c(c4)OCO5)ccc3c2=O)cc1 | -6% | >57
O=C(NCC1CCCO1)c1cnn2c1NC(c1ccccc1)CC2C(F)(F)F (centres undefined) | · | >57
COc1ccc(/C=C(\C#N)C(N)=O)cc1OC | 1%[8 µM] | >57
c1ccc(-n2cccc2CNC2CCCCC2)cc1 | -10% | >57
C/C(CCC(=O)OC[C@@H]1O[C@H](C#Cc2ccccc2)C=C[C@@H]1Oc1ccc(C)cc1)=N/O[C@@H](C)CN1CCCc2nc(C)c(C)cc21 | -7%[1.6 µM] | ·

Carrying on.
SMILES | Anthrax LT inh | Prx2 Sm inh
O=S(=O)(c1ccc(-c2csc(-c3cccnc3)n2)cc1)N1CCCC1 | · | >57
COc1cc(NC(=O)c2cccs2)c(C(=O)OCC(=O)NCc2ccco2)cc1OC | -8% | >57
CC(C)(C)c1cc(C(=O)/C=C/c2ccc(C(=O)O)cc2)cc(C(C)(C)C)c1 | 13µM* | ·
Nc1nc(-c2cccnc2)nn1C(=O)Cc1ccccc1 | -5% | >57
CCS(=O)(=O)N1CCC(C(=O)NCc2ccccc2OC)CC1 | 9% | >57
CC(=O)Cc1nsc(Nc2ccc3c(c2)OCCO3)n1 | 7% | >57
Fc1ccccc1-c1nc(-c2ccccc2)no1 | -12% | >57
COc1ccc(CC2C(=O)N(C)C(=O)N(C)C2=O)c(OC)c1 | -1% | >57
COc1cc2c(cc1NC(=O)Cn1cnc3c1c(=O)n(C)c(=O)n3C)oc1ccccc12 | 4% | >57
O=C(NCCN1CCOCC1)c1ccc(CS(=O)(=O)c2ccc(Cl)cc2)o1 | -5% | >57
Nc1nc2ccc([N+](=O)[O-])cc2s1 | -11% | ·
O=C(O)/C=C\CO | -7% | >57
Cc1ccc(NC(=O)CN(C)S(=O)(=O)c2cccc3nsnc23)cc1Cl | -7% | >57
NCCC[C@@H](CC(=O)N[C@@H]1CCCC[C@H]1C(=O)N[C@H](CC(=O)N[C@@H](CCC(=O)O)CC(=O)O)Cc1ccccc1)NC(=O)C[C@H](Cc1ccccc1)NC(=O)[C@@H]1CCCC[C@H]1N | -18% | >57
c1ccc(-c2cc(N3CCCCC3)ncn2)cc1 | -9% | >57
CC(C)OC(=O)c1c(N)n(CC2CCCO2)c2nc3ccccc3nc12 (centres undefined) | ? | >57
CN1CCN(c2cc3c(c4c2[nH]c2ccccc24)C(=O)CC(C)(C)C3)CC1 | ? | >57
COC(=O)C1(C)NC(c2cccs2)C2C(=O)N(c3ccc(F)cc3)C(=O)C21 (centres undefined) | -2% | >57
COc1ccc(NC(=O)C2=C(C)Nc3ncnn3C2c2ccccc2C(F)(F)F)c(OC)c1 (centres undefined) | -1% | >57
O=C(O)CSc1nc2ccc(Cl)cc2[nH]1 | 2% | >57

Complete entries as entered above.
CCCOc1ccccc1C1C(C(=O)OC)=CN(C(C)C)C=C1C(=O)OC in the list: Anthrax LT inh: ?; Prx2 Sm inh: >57
CCOc1ccccc1OCCCCCc1c(C)n[nH]c1C in the list: Anthrax LT inh: 11%; Prx2 Sm inh: >57
Nc1nonc1-c1noc(CCCCCN2C(=O)c3ccccc3C2=O)n1 in the list: Anthrax LT inh: -3%; Prx2 Sm inh: >57

Continued:
SMILES | Anthrax LT inh | Prx2 Sm inh
Cc1nnc(SCCN2CCOCC2)n1-c1cccc(Cl)c1 | 9% | >57
Cc1cccc(OCc2nnc(SCC(=O)N3CCN(C(=O)c4ccco4)CC3)n2C)c1C | -6% | >57
CC(C)(C)NC(=O)C(c1ccco1)N(Cc1ccc2c(c1)OCO2)C(=O)Cn1nnc2ccccc21 (centres undefined) | -11% | >57
CCn1cc(C(=O)O)c(=O)c2cc(F)c(N3CCN(C(=O)Nc4ccccc4)CC3)cc21 | -8% | >57
CC1CCCN(CCCNC(=O)CCn2nc(-c3ccccc3)ccc2=O)C1 (centres undefined) | ? | >57
COc1ccccc1C(=O)Nc1ccc(N2CCN(S(C)(=O)=O)CC2)cc1 | 22% | >57
O=C(COC(=O)c1ccco1)NCc1cccs1 | 8% | >57
O=C(N[C@H]1CN2CCC1CC2)c1ccc(Cl)cc1 | -17% | ·
CCC1c2ccc(C)n2CCN1C(=O)Nc1ccccc1OC (centres undefined) | 10% | >57
COc1ccc(CCN=CC2=C(O)CCCC2=O)cc1OC | -7% | >57
O=C(COC(=O)c1cccs1)NC1CCCCC1 | -2% | >57
Cc1noc(C)c1COC(=O)c1ccc2c(c1)S(=O)(=O)c1ccccc1C2=O | -3% | >57
